Biofilm kill mix – mixture kills Candida albicans biofilm cells. C. albicans biofilm persisters + clotrimazole, fluorescence viability; primary screen in compound mixtures of four per well. inhibition, % at 7.6 µM. 120,000 tested, 0.02% active. AID 1242;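 active = inhibition above 30.3% in the primary screen of four-compound pools, then above 30% when the compound was retested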;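 also: compounds exposed to preformed 24 h biofilms for 48 h; the number belongs to the whole pool; some results filed as inactive read as strong as hits; inactives centre near 12; 0% = biofilm with clotrimazole alone and 100% = kill control; retested singly at about 60 µM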
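Incubation: 24 h biofilm formation, then 48 h compound exposure, 37 °C | Material: C. albicans biofilms | Buffer or medium: RPMI/MOPS medium, pH 7.0 | Measured by: 2-h Alamar Blue fluorescence, 535/590 nm excitation/emission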
Starred values were filed as active, the others as inactive. Some of the compounds tested; the hit share may differ from the screen's.

SMILES	Biofilm kill mix
O=C(N/N=C/c1cc2cc3c(cc2nc1Cl)OCO3)c1ccncc1	17
Cc1ccc(OCCn2cnc(Cl)c2Cl)cc1	25
CN1CCC(N(C)CC(C)(C)NS(=O)(=O)c2ccccc2)CC1	18
O=C(NCc1ccccn1)C(=O)Nc1cccc2ccccc12	-5
O=S(=O)(NC(=NCc1ccccc1)c1ccccc1F)c1ccccc1	5
CC(=O)Nc1ccc(SCC(=O)c2cc(C)n(-c3ccccc3)c2C)cc1	17
O=C(COC(=O)c1cc2ccccc2oc1=O)c1cccc([N+](=O)[O-])c1	15
Cc1cc(F)ccc1NC(=O)c1cnccn1	17
CC1CCN(CCn2c(=S)[nH]c3cc4c(cc3c2=O)OCO4)CC1	10
CCc1c(OC(C)=O)c2ccccc2n(C)c1=O	-12
NC1=NC(c2cn[nH]c2-c2ccc(F)cc2)n2c(nc3ccccc32)N1 (stereo not drawn)	18
CCCCn1c(-c2ccco2)n[nH]c1=S	12

Four entries from above, in CSV form.
SMILES,Biofilm kill mix
O=S(=O)(NC(=NCc1ccccc1)c1ccccc1F)c1ccccc1,5
CC(=O)Nc1ccc(SCC(=O)c2cc(C)n(-c3ccccc3)c2C)cc1,17
O=C(COC(=O)c1cc2ccccc2oc1=O)c1cccc([N+](=O)[O-])c1,15
Cc1cc(F)ccc1NC(=O)c1cnccn1,17

(list continues)
SMILES	Biofilm kill mix
O=C(CCCN1C(=O)/C(=C/c2cccs2)SC1=S)NNC(=O)c1ccncc1	4
CC[C@@H]1CC=C[C@H]2[C@H]1C(=O)N(Cc1ccccc1)[C@H]2c1ccc2ccccc2c1	11
COc1ccc(-c2[nH]ncc2CN2CCC(C(=O)N3CCOCC3)CC2)c(F)c1	31
O=C(O)c1ccc(N/N=C/c2ccc(-c3cc(Cl)ccc3Cl)o2)cc1	27
O=c1[nH]c(CN2CCN(S(=O)(=O)c3ccc4c(c3)OCCO4)CC2)nc2sc3c(c12)CCCC3	5
CCc1ccc(OCC(=O)Nc2cccc3c2CCCC3)cc1	17
Cn1nc(-c2ccccc2)cc1NC(=O)CCCC(=O)O	16
Cc1ccc(C(=O)NNC2=NC(C)(C)Cc3ccccc32)cc1	2
CCOC(=O)c1ccc(NC(=O)COC(=O)c2cccc(Oc3ccccc3)c2)cc1	16
CC(=O)c1ccc(NC(=S)N2CCN(c3cccc(Cl)c3)CC2)cc1	-12
CCOC(=O)c1ccc(NC(=O)CSC(=S)N2CCOCC2)cc1	25
O=C(Nc1ccc(N2CCCC2)cc1)c1ccc2ccccc2c1	-6

2 compounds picked at random from the list so far:
SMILES	Biofilm kill mix
O=C(N/N=C/c1cc2cc3c(cc2nc1Cl)OCO3)c1ccncc1	17
O=C(CCCN1C(=O)/C(=C/c2cccs2)SC1=S)NNC(=O)c1ccncc1	4

(cont.)
SMILES	Biofilm kill mix
CCOC(=O)C1CCCN(C(=O)COc2ccc(N(C)S(=O)(=O)c3ccc(C)cc3)cc2)C1 (stereo not drawn)	14
O=C(NC1CCCC1)C(c1ccccc1)N(C(=O)c1ccco1)C1CCCC1 (stereo not drawn)	6
COc1cnc(-c2ccccn2)nc1Sc1ccc(C)cc1	7
O=C(N/C(=C/c1cccnc1)C(=O)N1CCOCC1)c1ccccc1Cl	11
CSCCC(NS(=O)(=O)c1ccc(Cl)cc1)C(=O)OCC(=O)c1ccc(F)cc1 (stereo not drawn)	3
CCOC(=O)COc1ccccc1/C=C1/NC(=O)NC1=O	3
Cc1cc(C(=O)N/N=C/C(Cl)=C/c2ccccc2)c(C)o1	30
N#Cc1sc2nc(-c3cccs3)cc(-c3ccc(F)cc3)c2c1N	9
O=C(N/N=C/c1coc2ccccc2c1=O)c1cc(O)cc(O)c1	-1
O=c1cc(-c2ccc(O)cc2)oc2c(O)c(O)c(O)c(O)c12	23
CC(C)CC(=O)N/C(N)=N/c1nc2ccccc2o1	17
COc1ccc(Nc2nccc(N(C)C)c2C#N)cc1	14
O=C(CSc1nnc2sc3ccccc3n12)NCc1ccc2c(c1)OCO2	6
CC(C)(C)c1ccc(CN2C(=O)CSC2=O)cc1	24
CNc1nc(N)c([N+](=O)[O-])c(NCC2CCCO2)n1 (stereo not drawn)	4
CC(C)NC(=O)CC(=O)N/N=C/c1cccs1	2
CCOC(=O)CC1(c2ccc(OC)c(OC)c2)C(=O)c2ccccc2C1=O	15
CCOC(=O)C1=C(C)N(c2ccc(OC)cc2)C(=O)/C1=C\c1ccc(O)c(OCC)c1	28
COc1ccc(NC(=O)c2cc3nc(-c4ccccc4)cc(C)n3n2)cc1OC	-6
c1ccc(C2=NN(c3ccccc3)C(c3ccco3)C2)cc1 (stereo not drawn)	25
CC(C)CNc1nnnc2c1sc1nc(N3CCOCC3)c3c(c12)CCCC3	21
NS(=O)(=O)c1cccc(NC(=O)COC(=O)COc2ccc3ccccc3c2)c1	5
CCn1cc(C(C)NC(=O)Nc2ccccc2C(=O)OC)c(C)n1 (stereo not drawn)	19
CCOC(=O)c1ccc(S(=O)(=O)N2CCN(C(=O)CSc3nc4ccccc4o3)CC2)cc1	3
O=S(=O)(Nc1ccc(N=Nc2ccc(O)c3ccccc23)cc1)c1ccccc1	13
Cc1ccccc1NC1=CC(=O)CC(C)(C)C1	4
CC1=C(C(N)=O)C(c2cccs2)n2ncnc2N1 (stereo not drawn)	21
Cc1ccc(-c2ccc(C(=O)Nc3cccc(F)c3)o2)c2ccccc12	1
COc1cc(/C=C/C(=O)O)ccc1S(=O)(=O)N1CCCc2ccccc21	16
CN(c1ccccc1)c1nc(N)c([N+](=O)[O-])c(NCCO)n1	11
COc1ccc(NC(=O)NNC(=O)CCC(=O)Nc2ccccc2Cl)cc1	7
CC(=O)Nc1ccc(-c2csc(Nc3ccc(S(N)(=O)=O)cc3)n2)cc1	-2
Cc1ccc(C)c(NC(=O)COC(=O)CCCN=C2NS(=O)(=O)c3ccccc32)c1	8
O=C(c1cccc(Oc2c(Cl)cccc2[N+](=O)[O-])c1)N1CCCCC1	12
O=C(O)CCn1c(CO)nc2ccccc21	9
COc1ccc(C(=O)NC(=S)N2CCN(C)CC2)cc1Br	10

Reformatted in CSV form: entries from further up.
Structure,Biofilm kill mix
CCn1cc(C(C)NC(=O)Nc2ccccc2C(=O)OC)c(C)n1 (stereo not drawn),19
O=S(=O)(Nc1ccc(N=Nc2ccc(O)c3ccccc23)cc1)c1ccccc1,13
CCc1ccc(OCC(=O)Nc2cccc3c2CCCC3)cc1,17

Four entries from above, with each value named.
SMILES: CCOC(=O)CC1(c2ccc(OC)c(OC)c2)C(=O)c2ccccc2C1=O
- Biofilm kill mix: 15

SMILES: CC(C)NC(=O)CC(=O)N/N=C/c1cccs1
- Biofilm kill mix: 2

SMILES: O=c1cc(-c2ccc(O)cc2)oc2c(O)c(O)c(O)c(O)c12
- Biofilm kill mix: 23

SMILES: O=S(=O)(NC(=NCc1ccccc1)c1ccccc1F)c1ccccc1
- Biofilm kill mix: 5

The list continues:
SMILES	Biofilm kill mix
COc1cc(NS(=O)(=O)c2ccc(NC(=O)CN3C(=O)c4ccccc4C3=O)cc2)nc(OC)n1	13
COc1ccc(CC(=O)OCC(=O)c2ccc(OC)cc2)cc1	10
CN(Cc1cn(C)nc1-c1cccc(Cl)c1)Cc1nccn1C	5
Cc1cccc(C2c3[nH]c4ccccc4c3CCN2C(=O)c2nn(C)c(=O)c3ccccc23)n1 (stereo not drawn)	0
Cc1ccc(NC(=O)CSc2nc(N)cc(=O)[nH]2)cc1S(=O)(=O)N1CCOCC1	16
Cc1cccn2cc(COc3ccc(-c4ccccc4)cc3)nc12	21
CCOC(=O)C1(Cc2ccc(OC)cc2)CCN(C(=O)c2cccc3nccnc23)CC1	8
COc1ccc(CC(=O)NC2CCCc3ccccc32)cc1 (stereo not drawn)	-14
COc1ccc(-n2nc3c(N)n[nH]c3cc2=O)cc1	20
CCN(CC)CCCN=Cc1c(O)n(-c2c(C)cccc2C)c(=O)c2ccccc12	24
O=C(Nc1nnc(SCc2c(Cl)cccc2Cl)s1)C1CC(=O)N(c2ccc3c(c2)OCCO3)C1 (stereo not drawn)	7
O=C1N/C(=N/O)S/C1=C\c1ccccc1-n1cccn1	3
COc1ccc([C@H]2CC(=O)c3c(O)cc(O)cc3O2)cc1O	16
COc1ccc(O[C@H]2C=C[C@@H](c3ccccc3)O[C@@H]2COC(=O)CC/C(C)=N/O[C@@H](C)CN2CCCCc3nc(C)c(C)cc32)cc1	16
Cc1cccc2c(C(=O)Nc3ccc(Br)cc3)cc(-c3ccccn3)nc12	1
O=C(Cn1nnc2ccccc21)Nc1ccc(Cl)cn1	6
CCOC(=O)c1cccc(-c2ccc(C=O)o2)c1	18
CCO[C@H]1OC(C(=O)NCc2ccccc2)=C[C@@H](C2CCCCC2)[C@@H]1CCCO	11
CCC(=O)OCC(=O)Nc1cc([N+](=O)[O-])ccc1OC	17
CC(C)c1ccc(NC(=S)NC2CCN(Cc3ccccc3)CC2)cc1	21
COc1ccc(N=C2O/C(=C/c3sc(=S)n(CC4CCCO4)c3O)N=C2C#N)cc1 (stereo not drawn)	8
CCP(=O)(c1cccc([N+](=O)[O-])c1)c1cccc([N+](=O)[O-])c1	12
NC(=O)C1CCN(CC(=O)NC2CCCc3ccccc32)CC1 (stereo not drawn)	9
CCOc1ccccc1NC(=S)N(CCOC)C1CCN(C(C)=O)CC1	10
O=C(NC1CCCC1)c1cc(Cl)ccc1[N+](=O)[O-]	19
CC1=NN(C(=O)CSCc2ccccc2)C(O)(c2ccc(Cl)cc2)C1 (stereo not drawn)	15
Cc1cc(C)nc(SCC(=O)NN)n1	19
COc1ccc(NC(=O)c2ccc(-n3c(C)ccc3C)cc2)c(OC)c1	6
Cc1nc(N2CCC(C(N)=O)CC2)c2c(-c3cccs3)csc2n1	17
CC(=O)Nc1ccc(-c2csc(Nc3ccc(Cl)cn3)n2)cc1	9
COc1ccc(/C=N/n2c(-c3cc(C)[nH]n3)n[nH]c2=S)cc1	29
Cc1ccc(S(=O)(=O)N2CCN(C(=O)/C=C/c3ccco3)CC2)cc1	10
Cc1ccc(Oc2cc([N+](=O)[O-])cc3c2C(=O)Nc2ccccc2O3)cc1	13
O=[N+]([O-])c1ccc(N2CCOCC2)c(S(=O)(=O)N2CCOCC2)c1	11
CNC(=O)CNC(=O)Nc1ccc(C)cc1	11
NNC(=O)CS(=O)(=O)CS(=O)(=O)CC(=O)NN	21
O=C(NNC(=S)Nc1ccc(Cl)cc1)c1cccs1	25
COc1cccc(/C=C(\CC(=O)O)c2nc3ccccc3s2)c1	10
Cc1cc(C)c2c(NC(=O)CCl)nn(C)c2n1	6
O=C(/C=C/c1ccccc1)Nc1sc2c(c1C(=O)O)CCC2	10
COc1ccc(/C=C/C(=O)NCC(=O)N/N=C(\C)Cc2ccccc2)cc1	11
CC(C)=CCN1CCN(Cc2ccc(C)s2)CC1CCO (stereo not drawn)	2
O=C(c1ccc(F)cc1)N(c1ccccn1)C1CCCCC1	11
CC(C)=CC(=O)OCC(=O)Nc1cc(C)cc(C)c1	11
Cc1cccc(C)c1NC(=O)CSc1nnc(C)n1CC1CCCO1 (stereo not drawn)	14
CCN(CC)S(=O)(=O)c1ccc(OC)c(NC(=O)C(C)Oc2ccc3c(C)cc(=O)oc3c2)c1 (stereo not drawn)	22
Cc1cc(C)nc(N2N=C(CSc3ccc(Cl)cc3)CC2=O)n1	14
Cc1ccc(-c2nn(-c3ccccc3)cc2/C=C/C(=O)Nc2nccs2)cc1	12
Cc1ccc(NC(=O)COC(=O)Cn2nc(C)c([N+](=O)[O-])c2C)c([N+](=O)[O-])c1	4
NC(=S)N/N=C1\CC(c2ccc3c(c2)OCCO3)Oc2ccc(F)cc21 (stereo not drawn)	11
Cc1ccc(-n2c(C)cc(C(=O)CN3CCCCC3)c2C)cc1	0
COc1ccc([N+](=O)[O-])cc1NC(=O)CC(c1ccccc1)c1ccccc1	18
Cc1cc2c(NC(=O)Nc3ccccc3)cccc2nn1	6
CCn1cc(/C=C/C(=O)Nc2c(C)nn(Cc3ccccc3)c2C)cn1	21
Cc1nonc1OC(C)CNCCNc1ccc([N+](=O)[O-])cc1 (stereo not drawn)	15
Cn1cnc([N+](=O)[O-])c1NCc1ccccc1	12
COCCN(CCOC)S(=O)(=O)c1ccc(C(=O)Nc2c(C)n(C)n(-c3ccccc3)c2=O)cc1	11
COc1cnc(-c2ccccn2)nc1Sc1ccc(F)cc1	22
COc1ccc(C2SCCN2C(=S)Nc2ccc(F)cc2)cc1 (stereo not drawn)	9
COc1ccccc1N(C)S(=O)(=O)c1ccc(C(=O)NC(C)c2ccccc2)cc1 (stereo not drawn)	19

Additional results.
SMILES	Biofilm kill mix
O=C(NNC(=O)C1[C@H]2CCCC[C@@H]12)Nc1cccc2ccccc12 (stereo partly drawn)	28
COc1cc2c(cc1NC(=O)COC(=O)CNC(=O)c1ccccc1)oc1ccccc12	10
Clc1ccc(CNCc2cccs2)c(Cl)c1	10
COC(=O)c1ccc(N2CN=C(c3ccc(C)cc3)NC2=S)cc1	9
Cc1nn(C)cc1/C=C/C(=O)c1ccc(O)cc1	7
Cc1ccc(CSc2nnc(CCCCCNC(=O)OC(C)(C)C)o2)cc1	11
CNC(=O)c1c(NC(=O)C(C)C)sc2c1CCC2	18
CN(C(=O)COC(=O)c1n[nH]c2ccccc12)c1ccccc1	8
S=C(NCc1ccc(Cl)cc1)Nc1ccccc1Cl	24

Bioassay records (PubChem)
